# Screening data from PubChem.
# Vaccinia Venus: inhibitors of vaccinia virus (Venus reporter). Vaccinia virus Venus reporter expression, fluorescence. Potency, µM (highest dose often 36.5 µM), without a hit: top-dose activity change, negative = inhibition, actives largely listed as inhibitors. actives 0.46% (n = 330,000). AID 720580; active means well fitted inhibition curve with a large enough effect; inconclusive means small, poorly fitted or top-dose-only effect; inactive means no such curve, though single readings can be large or run the other way; tested in A549 cells; also: nearly all actives have a fitted effect of over 30% in size; inactives centre near -10
# Vaccinia mCherry: vaccinia inhibition (mCherry reporter). Vaccinia virus mCherry reporter infection, fluorescence; about a quarter of the inactives have no number. Potency, µM (series often up to 36.5 µM), for inactives: top-dose activity change, negative = inhibition, actives largely listed as inhibitors. actives 0.63% (n = 310,000). AID 720579; active = well fitted inhibition curve with a large enough effect; inconclusive = small, poorly fitted or top-dose-only effect; inactive = no such curve, though single readings can be large or run the other way; tested in A549 cells; also: nearly all actives have a fitted effect of over 35% in size; inactives centre near -10
# * = called active by the depositor; i = inactive; ? = inconclusive; / = not tested or not shown; & = joins results of further samples; [ ] = dose if it differs, or a comment. % is scaled to controls: 0 for no effect and ±100 for the full control effect; potency is read from the fitted curve at half-maximal effect.
# Under each structure: Vaccinia Venus	Vaccinia mCherry
- Cc1cn([C@H]2C[C@H](O)[C@@H](CNCc3ccccc3OCCCN3CCOCC3)O2)c(=O)[nH]c1=O
  -7.6%	-23.0%
- Cc1cc(C)n(-c2nc3ccccc3n3nnnc23)n1
  -4.1%	/
- O=C(NCc1cccc(C(F)(F)F)c1)C1CC(c2ccc(C(F)(F)F)cc2)=NO1 (stereo not given)
  -15.1%	i
- CCN(CC)c1ccc(S(=O)(=O)N2CCOCC2)cc1NC(=O)CSC(=S)N1CCCC1
  -29.0%	-29.2%
- COC(=O)c1c(C(=O)OC)c2ccccn2c1C(=O)c1ccc([N+](=O)[O-])cc1
  -7.4%	-13.5%
- CCN(CC)C(=O)c1c(Cl)nc(C)c([N+](=O)[O-])c1C
  -3.4%	-14.8%
- CC(C(=O)NC1CCCCCC1)n1cc([N+](=O)[O-])cn1 (stereo not given)
  -5.4%	-10.5%
- COc1ccc(CN2CCC(N(CCc3ccccc3)Cc3ccccc3)CC2)c(OC)c1
  -22.9%	-17.0%
- O=C(O)C1CSC(CCc2ccccc2)N1 (stereo not given)
  -2.4%	/
- CC(=O)Nc1ccc(NC(=O)Nc2sc3nc4n(c(=O)c3c2C)CCC(C)CC4)cc1 (stereo not given)
  6.6%	-1.5%
- CCc1noc(-c2ccc(NCc3ccccc3)c([N+](=O)[O-])c2)n1
  -1.4%	-9.5%
- CCN(c1ccc(C)cc1C)S(=O)(=O)c1nnc(NC(=O)CC(C)C)s1
  -16.6%	-17.0%
- O=C(N/N=C/c1c[nH]c2ccc(Br)cc12)c1ccn(Cc2ccc(Cl)cc2Cl)n1
  ?	/
- COc1ccc(Cc2nc(C(=O)NCc3ccccc3OC)cs2)cc1
  -9.9%	/
- Cc1cccc(/C(N)=N/OC(=O)Cc2cccc3ccccc23)c1
  -8.1%	i
- CCOc1ccc(NS(=O)(=O)c2ccc3c4c(cccc24)C(=O)N3)cc1
  -4.0%	-19.6%
- C/C(=N\NC(=O)c1cc(-c2cccc([N+](=O)[O-])c2)n[nH]1)c1ccc(F)cc1
  -3.3%	i
- COc1ccc(C(=O)N2CCN(c3cccc(Cl)c3)CC2)c(OC)c1
  ?	/
- O=C(NCc1ccccn1)C(=O)NCc1ccccn1
  -12.0%	-20.3%
- COCCn1nnnc1C(c1ccc(OC)c(OC)c1)N1CCN(c2nc3ccccc3s2)CC1 (stereo not given)
  -26.3%	?
- O=C(N/N=C/c1cccc(Oc2ccccc2)c1)c1cccc(Br)c1
  -18.7%	-1.4%
- COC(=O)c1ccc(-n2nnnc2SCC(=O)Nc2ccccc2OC)cc1
  1.1%	i
- Cc1cccn2c(Nc3ccc4c(c3)OCCO4)c(-c3ccc(Br)o3)nc12
  -8.9%	-15.0%
- Cc1nn(-c2ccc(F)cc2)c2nc(N)c(C#N)c(-c3cccs3)c12
  ?	-25.7%
- O=S(=O)(c1ccccc1)N1CCNc2ccccc21
  0.0%	?
- Cc1cc(Nc2ccccc2)nn1C(=O)c1ccc(Br)cc1
  -27.0%	/
- O=C(NCCc1ccc(C(F)(F)F)cc1)C1CCC(=O)N(C2CC2)C1 (stereo not given)
  -5.5%	-0.9%
- Clc1ccc(-c2nnc(-c3ccco3)nc2N2CCCCC2)cc1
  -4.0%	i
- CCC(C(=O)Nc1ccc(N2CCOCC2)c(S(=O)(=O)Nc2ccccc2OC)c1)c1ccccc1 (stereo not given)
  -23.2%	-27.1%
- Cc1cc(C)c(C(=O)CSc2n[nH]c(=O)n2C2CC2)cc1C
  -17.7%	i
- COc1ccc(NC(=O)C[C@H]2C(=O)N(Cc3ccccc3)C[C@@H]2c2ccc(OC)cc2)cc1
  -12.6%	-12.2%
- CCC(C)NCC(=O)Nc1ccc(-c2nc3cc(NC(=O)CNC(C)CC)ccc3o2)cc1 (stereo not given)
  -15.1%	/
- COc1ccccc1NC(=O)c1sc2nc(-c3cc4cc(Cl)ccc4oc3=O)[nH]c(=O)c2c1C
  16.8%	-4.6%
- COc1cc(Cl)c(C)cc1NC(=O)c1sc2nc(C)cc(C)c2c1N
  -6.1%	-12.3%
- Cc1c(/C=N/NC(=O)CNc2ccccc2)c2ccccn2c1C(=O)c1ccccc1
  -28.4%	-15.9%
- CCN1CCN(C(=O)CNC(=O)c2nn(-c3ccc(OC)cc3)c(=O)c3ccccc23)CC1
  -3.6%	8.5%
- CN(CC1CCCN(CCc2ccc(Cl)cc2)C1)C(=O)c1ccoc1 (stereo not given)
  -6.5%	-12.6%
- CN(C)CCCNC(=O)C[C@H]1C[C@H](C(=O)N2CCCCC2)[C@@]2(CCc3ccccc3)c3[nH]c4cc(CCC(=O)N(C)C)ccc4c3CCN2C1=O
  -1.1%	-12.0%
- COc1ccc(-c2noc(CSc3ccccc3)n2)cc1OC
  -14.7%	-13.9%
- COc1cc(C=CC(=O)OCC=Cc2ccc3c(c2)OCO3)cc(OC)c1OC
  -18.0%	-20.5%
- O=C(O)CCc1ccc(S(=O)(=O)Nc2ccc(OCc3ccccc3)cc2)cc1
  -7.9%	?
- CCc1ccccc1NC(=O)CSc1nc2c(oc3ccccc32)c(=O)n1-c1ccccc1F
  -3.7%[7.34 µM]	-4.8%[7.34 µM]
- CC1CC(C)CN(Cc2nc3c(c(=O)n(C)c(=O)n3C)n2CCN2CCOCC2)C1 (stereo not given)
  -12.6%	-16.5%
- CC(NC(=O)CN1c2cccc3cccc(c23)S1(=O)=O)c1ccccc1 (stereo not given)
  -24.5%	?
- Cc1cccn2c(=O)nc(SCC(=O)NC3CCCC3)nc12
  -11.2%	-9.6%
- Cc1ccc(S(=O)(=O)NCC2(c3ccccc3)CCOCC2)cc1
  -0.7%	i
- CCCCSC1=C(C#N)C(c2ccccc2C)C(C(=O)OCC)C(=O)N1 (stereo not given)
  -14.7%	-7.1%
- CCC(=Nc1ccccc1N)c1c(O)[nH]c(=O)[nH]c1=O
  -9.9%	-14.5%
- CCc1ccc(NC(=O)CC(c2ccc(C)cc2)N2Cc3ccccc3C2=O)cc1 (stereo not given)
  -8.6%	-9.9%
- CCC(C)NC(=O)Cn1c(=O)n(CC2CCC(C(=O)NC)CC2)c(=O)c2sccc21 (stereo not given)
  -8.1%	-7.0%

# The listing continues:
# Under each structure: Vaccinia Venus	Vaccinia mCherry
- N#CCCN(NC1=NS(=O)(=O)c2ccccc21)C(=O)c1ccccc1Br
  -6.6%	i
- CCn1c(/C=C/c2c[nH]c3ccccc23)nc2ccccc2c1=O
  -9.0%	-18.8%
- O=C1CC(SC(=Nc2ccccc2)Nc2ccccc2)C(=O)N1c1cccc2ccccc12 (stereo not given)
  ?	/
- Cc1ccc([C@@H]2CC=C(C(=O)O)[C@H](c3cccc(Cl)c3)N2S(=O)(=O)c2ccccc2C)cc1
  -22.4%	-15.3%
- CCOc1ccc(S(=O)(=O)N2CCC(N3CCN(Cc4ccc(C)cc4)C(=O)C3=O)CC2)cc1
  -17.9%	-26.6%
- COc1ccc(-n2c(O)c(/C(C)=N/Nc3ccccc3)c(=O)[nH]c2=O)cc1
  6.6%	-24.1%
- CC(=O)[C@@]1(O)CCC2C3CC[C@H]4C[C@@H](O)CC[C@]4(C)C3CC[C@@]21C (stereo not given in full)
  4.1%	-15.6%
- Cn1c(CNc2cccc(Cl)c2)nnc1SCC#N
  1.1%	-9.1%
- COc1ccc(NC(=O)/C(C#N)=C/c2ccc3c(c2)n(C)c(=O)n3C)cc1
  -21.7%	-3.0%
- Cc1ccccc1C(=O)NCC(c1ccco1)N1CCc2ccccc21 (stereo not given)
  -7.2%	?
- Cc1cc(C(=O)CSc2nnc(-c3ccc4c(c3)OCO4)o2)c(C)n1-c1ccc(F)cc1
  1.7%	-6.9%
- Cc1ccc(C(C(=O)NC2CCCCC2)N2CCOCC2)cc1 (stereo not given)
  -5.2%	-2.1%
- Cc1ccc(C)c(NC(=O)N2CC=C(c3c[nH]c4ccccc34)CC2)c1
  -1.8%	-12.4%
- NC(=O)c1c(NC(=O)c2cccs2)sc2c1CCCCCC2
  -27.0%	?
- CC1=C(C(=O)N(C(C)C)C(C)C)CC(CC(=O)NCCCCc2ccccc2)C(=O)N1Cc1ccc(F)cc1 (stereo not given)
  -13.9%	8.8%
- COc1ccc(-c2cc(C(=O)N3CCCCC3C)no2)cc1OC (stereo not given)
  -0.4%	-5.6%
- Cc1ccc(C(O)c2ncc(-c3ccccc3)[nH]2)c(C)c1 (stereo not given)
  -0.4%	31.3%[activator]
- CCC(CO)Nc1ncnc2c1cnn2-c1ccc(OC)cc1 (stereo not given)
  -1.5%	i
- COc1ccccc1Nc1nn2c(=O)c3ccc(C(=O)N4CCCC(C)C4)cc3nc2s1 (stereo not given)
  -24.4%&-8.0%	?
- O=C1CC(C(=O)NCCc2ccccc2)SC(=Nc2ccccc2)N1 (stereo not given)
  -11.5%	-4.1%
- CN(C)c1ccc(-c2nccc(NCc3ccccc3)n2)cc1
  -23.2%	?
- CC(C)c1cccc(C(C)C)c1NC(=O)CCN1C(=O)NC2(CCCC2)C1=O
  -11.3%	i
- O=[N+]([O-])c1c(NCCCO)cc(N2CCCCCC2)c2nonc12
  -22.8%	?
- O=C(O)c1cccc(NC(=O)c2ccccc2NC(=O)c2cccs2)c1
  1.8%	-1.5%
- CC(NC(=O)COC(=O)Cc1ccccc1[N+](=O)[O-])c1ccccc1 (stereo not given)
  -4.3%	-7.4%
- CCS(=O)(=O)N1CCC(NC(=O)C2CCCCC2)CC1
  -19.8%	-14.0%
- CCN1CCN(CC(=O)N/N=C/c2ccc(F)cc2F)CC1
  -10.8%	-12.6%
- CC(C)(C)c1cnnn1-c1cccc([N+](=O)[O-])c1
  -11.3%	-14.3%
- COc1ccc(-n2c(C)cc(=O)[nH]c2=O)cc1
  -4.5%	-20.5%
- COC(=O)[C@]12CCCCC=C1N(Cc1ccco1)C(=O)[C@H](CC(=O)N1CCN(C(=O)c3ccco3)CC1)C2
  -7.2%	3.4%

# Look-ups from above:
# For Vaccinia mCherry, COc1ccccc1NC(=O)c1sc2nc(-c3cc4cc(Cl)ccc4oc3=O)[nH]c(=O)c2c1C has the entry -4.6%
# For Vaccinia Venus, Cc1ccc(S(=O)(=O)NCC2(c3ccccc3)CCOCC2)cc1 has the entry -0.7%
# For Vaccinia Venus, CCC(CO)Nc1ncnc2c1cnn2-c1ccc(OC)cc1 (stereo not given) has the entry -1.5%

# The list goes on:
# Under each structure: Vaccinia Venus	Vaccinia mCherry
- CCCN1CCc2nc(N3CCN(CC)CC3)ncc2C1
  -13.0%	-5.5%
- N#Cc1cccc(NC(=O)C2CCN(S(=O)(=O)c3ccc4c(c3)CCCN4C(=O)C3CCC3)CC2)c1
  -15.5%	-11.7%
- Cc1ccc(C(=O)N2CCN(S(=O)(=O)c3ccc(Br)cc3)CC2)o1
  -16.9%	-20.4%
- Cc1c(C)c2ccc(OCC(=O)N3CCC(C(=O)O)(c4ccccc4)CC3)c(C)c2oc1=O
  8.3%	9.3%
- CCNc1nc2c(c(=O)n(C)c(=O)n2C)n1CCCc1ccccc1
  -16.7%	?
- Cc1ccc(C(NC(=O)C2CCN(CCOc3ccccc3)CC2)c2ccccn2)cc1 (stereo not given)
  -4.4%	5.6%
- CC(C)CC[n+]1ccn(-c2nc3ccccc3nc2[N-]S(=O)(=O)c2ccccc2)c1
  -6.5%	-2.5%
- COC(=O)c1ccccc1NC(=O)c1ccc(NS(C)(=O)=O)cc1
  -15.9%	/
- COc1ccc(C)cc1NC(=O)CSc1nc(=O)n(Cc2ccncc2)c2c1CCC2
  -25.1%	-14.0%
- O=C(Cc1cccs1)Nc1nnc(Cc2ccccc2)s1
  -6.4%	/
- COc1ccc(C(=O)NC2CCCCC2)cc1OC1CCN(C(C)C)CC1
  -17.8%	-6.7%
- CCCCN1CC[C@H]2C=CC[C@@H](C(=O)N3CCOCC3)[C@H]2C1=O
  -7.8%&-17.8%	-2.8%
- O=C1C=C(OCCF)CC(c2cccc([N+](=O)[O-])c2)O1 (stereo not given)
  11.3%	i
- Cc1cccc(C(=O)N2CCN(c3ccc([N+](=O)[O-])c(NCc4ccco4)c3)CC2)c1
  -37.6%	/
- CCOC(=O)N1CCC(N2C(=O)c3ccccc3C2Nc2cc(OC)c(OC)c(OC)c2)CC1 (stereo not given)
  -21.0%	13.3%
- Cc1c(C=O)c2ccccn2c1C(=O)c1cccs1
  -6.3%	i
- Cc1nc(-c2ccc(Cl)cc2)sc1C1(C)CC(c2ccc(F)cc2)=NO1 (stereo not given)
  2.9%	-14.4%
- COc1ccc2cc(C(=O)C3CCCN(C(=O)c4cccnc4)C3)ccc2c1 (stereo not given)
  -7.7%	-14.5%
- CN(Cc1cccc(F)c1)C(=O)c1ccc(NS(=O)(=O)c2ccc3[nH]c(=O)[nH]c3c2)cc1
  -9.7%	-12.2%
- CCC(c1ccc(O)cc1)C(CC)c1ccc(O)cc1 (stereo not given)
  -22.1%&-13.7%	i
- CCCCN1CC2=C(C1=O)C(c1ccc(O)cc1)NC(=O)N2C (stereo not given)
  0.1%	7.4%
- CN(C)C(CNC(=O)c1cc(S(=O)(=O)N(C)c2ccc(F)cc2)ccc1Cl)c1cccs1 (stereo not given)
  -22.1%	-24.8%
- CCOC(=O)CSCC(=O)N1CCC(Cc2ccccc2)CC1
  0.0%	-1.6%
- Cc1c(F)cccc1NS(=O)(=O)c1ccc2c(c1)c(C)cc(=O)n2C
  -16.8%	i
- O=C(CSc1nnc(-c2ccccc2)o1)OCc1ccccc1
  -7.3%	/
- O=[N+]([O-])c1ccccc1/C=N/n1c(-c2ccccc2)n[nH]c1=S
  -8.8%	i
- COc1cc(OC)c(C(=O)OCC(=O)Nc2cccc(S(=O)(=O)NC3=NCCCCC3)c2)cc1OC
  -10.8%	-15.8%
